# From PubChem
# H5N1 antiviral – MDCK cell protection from H5N1 avian flu | cytopathic effect, luminescence, 72 h; stronger effect = higher value; no value below 0 was filed and about half of the inactive calls have no number; reference of the scale not given here | inhibition, % at 50 µM | hit rate 0.07% among 96,000 | AID 740, 2007; in the data active = inhibition above about 25%
# Starred values were filed as active, the others as inactive; i = inactive. Not all compounds are listed. The share of hits here may be higher or lower than overall.
Compound	H5N1 antiviral
Cc1cccc2c(SCC(=O)NCC3CCCO3)nc(-c3ccc(F)cc3)nc12 (stereo unspecified)	i
CCCCCCOC(=O)CCn1[nH]c(=O)c2ccccc2c1=O	i
Cc1nn(C)c(C)c1S(=O)(=O)N1CCC(C(=O)Nc2ccc3c(c2)OCCO3)CC1	1.6
O=C(N/N=C/c1cc2ccccc2nc1Cl)/C(=C/c1cccs1)NC(=O)c1ccccc1	i
CCc1c(C#N)c(SCCC(=O)Nc2ccc(F)cc2)nc2c1C(=O)CC(C)(C)C2	6.3
COC(=O)c1ccc(OCC(=O)Nc2nn(-c3ccccc3)nc2C(N)=O)cc1	i
CCOC(=O)Cc1csc(NC(=O)CSc2nc3cccnc3n2CC)n1	0.8
O=C(O)CCCNC(=O)c1cncc(O)c1	i
COc1ccc(C(CC(=O)O)NS(=O)(=O)c2ccc(C)cc2)cc1OC (stereo unspecified)	1.0
O=S(=O)(Nc1ccccn1)c1ccc(Oc2ccccc2)cc1	i
CC(=O)Nc1cccc(NS(=O)(=O)Cc2ccc(Cl)cc2)c1	i
Cc1ccccc1C(=O)N(C)Cc1ccccc1	0.5
S=C(c1ccc(N2CCOCC2)cc1)N1CCOCC1	0.5
c1cnc(Oc2ccc(-c3nnco3)cc2)cn1	i
CCOc1cc(S(=O)(=O)N2CCN(Cc3ccccc3)CC2)ccc1Br	1.4
CC(=O)Nc1ccc(S(=O)(=O)Nc2nc(C)cc(-n3nc(C)cc3C)n2)cc1	1.1
Cc1ccc(N2CC(C(N)=O)CC2=O)cc1 (stereo unspecified)	0.6
COc1ccccc1C1(CC(=O)N2CCCCC2)CCOC(C(C)C)C1 (stereo unspecified)	0.8
CN1CCN(S(=O)(=O)c2cccc(S(=O)(=O)c3ccc(Cl)c(Cl)c3)c2)CC1	2.7
O=C(Nc1ccccc1)/C(=C/c1ccccc1)c1ccccc1	0.7
CCN(Cc1ccccc1)C(=O)COC(=O)c1n[nH]c2ccccc12	i
CCN(CC(=O)O)S(=O)(=O)c1cc(Cl)ccc1Cl	0.6
COc1ccc(C2N(S(=O)(=O)c3ccccc3)CCN2S(=O)(=O)c2ccc(C)cc2)cc1 (stereo unspecified)	1.0
COc1ccc(NC2CC(=O)NC2=O)cc1 (stereo unspecified)	0.1
O=C(CSc1nnc(-c2ccco2)n1-c1ccccc1)NCc1ccco1	i
NC(=O)C1CCN(C(c2ccccc2Cl)c2nnnn2Cc2ccc3c(c2)OCO3)CC1 (stereo unspecified)	0.1
COc1ccc2c(c1)C(C1C(=O)CCCC1=O)c1ccccc1O2 (stereo unspecified)	i
CCOC(=O)c1c(C)c(C(=O)NCc2cccs2)c(C)n1C	i
COc1cccc(=O)c2c(C)n(C)c(C)c12	i
COc1ccc(NC(=S)Nc2ccc(N)c([N+](=O)[O-])c2)cc1	i
CCOc1ccc(NC(=O)[C@@H](NC(=O)c2ccccc2Br)C(C)C)cc1	i
CC(=C/c1ccccc1)/C=N/NC(=O)c1cnccn1	i
CC1CN(c2nc(-c3ccccc3)nc3ccccc23)CC(C)O1 (stereo unspecified)	0.7
Cc1cc(N2C(=O)C(O)=C(C(=O)c3cccs3)C2c2ccccc2)no1 (stereo unspecified)	i
COc1ccc(S(=O)(=O)N2CCC(C)CC2)cc1Br	1.1
COc1ccc(-c2csc(NC(=O)c3nc(-c4ccccc4)oc3C)n2)cc1	0.3
O=C(CSc1cn(CCNC(=O)c2ccccc2)c2ccccc12)NCc1ccco1	0.5
Clc1ccc(NC2=NCCCCC2)cc1	i
CC1CCN(C(=O)CSc2nnc(Cc3cccn3C)n2CCc2ccccc2)CC1	0.7
Cn1c(=O)c(=O)n(C)c2cc(S(=O)(=O)N3CCc4ccccc43)ccc21	3.0
CCCCC(NC(=O)c1ccc(Cl)cc1)C(=O)O (stereo unspecified)	0.7
C=CCn1c(SCc2ccc(C#N)cc2)nnc1-c1cccc(OC)c1	0.1
O=C(COC(=O)c1ccccc1C(=O)N1CCN(c2ccc(F)cc2)CC1)NCc1ccccc1	0.2
O=C(NNC(=O)c1cc2cc3ccccc3nc2s1)c1ccc(F)cc1	0.6
CCOC(=O)N1CCC(Nc2nc3ccccc3nc2NS(=O)(=O)c2ccc(Cl)cc2)CC1	0.7
Cc1cc(C(F)(F)F)nn1CC(=O)N1CCCC1	i
Cc1ccc(C2c3c(oc4ccccc4c3=O)C(=O)N2c2nnc(C(C)C)s2)o1 (stereo unspecified)	i
COc1ccc(N2CC(C)Cn3c2nc2c3c(=O)n(Cc3ccccc3F)c(=O)n2C)c(OC)c1 (stereo unspecified)	i

# Four records drawn at random from the list so far:
Compound	H5N1 antiviral
O=C(COC(=O)c1ccccc1C(=O)N1CCN(c2ccc(F)cc2)CC1)NCc1ccccc1	0.2
O=C(CSc1cn(CCNC(=O)c2ccccc2)c2ccccc12)NCc1ccco1	0.5
Clc1ccc(NC2=NCCCCC2)cc1	i
Cc1ccc(C2c3c(oc4ccccc4c3=O)C(=O)N2c2nnc(C(C)C)s2)o1 (stereo unspecified)	i

# Remaining list, next part:
Compound	H5N1 antiviral
CNC(=O)CN(C)S(=O)(=O)c1ccc(F)cc1	0.6
CCCn1c(Nc2ccc(Cl)cc2)nc2ccccc21	i
O=C(Nn1c(Cc2cccs2)nc2ccccc2c1=O)c1cccs1	0.9
Cc1noc(NS(=O)(=O)c2ccc(NC(=O)CS(=O)(=O)c3ccccc3)cc2)c1C	1.1
CCOCCCNC(=O)N[C@@H](C)C(=O)OC	0.9
CCCCN(CC)CCNC(=O)CN(C)S(=O)(=O)c1ccc2c(c1)c(=O)n(C)c(=O)n2C	1.0
COc1cc(C(=O)Nc2nnc(-c3sccc3C)s2)cc(OC)c1OC	i
CCOC(=O)C1CCN(C(=O)c2c(-c3c(Cl)cccc3Cl)noc2C)CC1	0.7
COC(=O)c1ccc(NC(=O)c2ccccc2N(C)S(C)(=O)=O)cc1	1.2
C=CCOC(=O)c1ccc(-n2cncn2)nc1	0.9
COc1ccccc1OCC(=O)Nc1ccc(S(=O)(=O)Nc2nc(C)cc(C)n2)cc1	1.0
CCCS(=O)(=O)N1CCN(C(=O)c2ccccc2F)CC1	i
COc1ccc(NS(=O)(=O)c2ccc3oc4ccccc4c3c2)cn1	i
O=C(Nc1nnc(C2CC2)s1)c1cc(-c2ccccc2)nn1-c1ccccc1	i
NC(=O)CSc1nnc(-c2ccco2)n1N	i
COc1cc(SC)ccc1C(=O)Nc1ccc2c(c1)CCN2S(C)(=O)=O	0.7
COc1ccc2nc(C)[nH]c(=O)c2c1	i
O=C(NC1CCCCC1)C(c1cccs1)N(CC1CCCO1)C(=O)c1csnn1 (stereo unspecified)	i
O=C(Cc1c[nH]c2ccccc12)Nc1nccs1	i
c1ccc2c(c1)NC(c1ccncc1)n1c-2nc2ccccc21 (stereo unspecified)	i
COc1ccc(OC)c(NC(=O)CNC(=O)Cn2ccc3ccccc3c2=O)c1	i
CC(=O)c1cc2c(cc1NC(=O)CCn1cccc1)OCO2	i
COc1ccc(-c2cc(C(=O)N3CCCc4ccccc43)no2)cc1OC	i
Cc1cc(-c2cc(-c3ccc(Cl)cc3)nc(N)c2C#N)co1	i
Nc1nc(SCC(=O)Nc2ccccc2-c2ccccc2)n[nH]1	i
O=C(Nc1nc2c(s1)CCCC2)c1ccc(Br)s1	1.9
COc1ccc(-n2cnnc2SCc2csc(-c3ccccc3)n2)cc1	1.0
CCn1c(O)c(N=NC2=NC(=O)CS2)c2ccccc21	0.2
Clc1ccc(OCc2cnc(Cl)s2)cc1	i
CCSc1nnc(NC(=O)CC)s1	i
Cc1ccc(S(=O)(=O)CC(=O)N(C)C)cc1	i
Cc1nn(C)cc1CNC(=O)c1ccccc1Br	i
Cc1ccc(Cn2cccc(NC(=O)c3ccco3)c2=O)cc1	i
COc1ccc(-n2c(C)nn(C)c2=O)cc1	1.1
CC(C)Cn1c(C(C)C)nc([N+](=O)[O-])c1S(=O)(=O)c1ccc(F)cc1	5.2
CCN(CC)CCNC(=O)c1c(O)c2cccc3c2n(c1=O)CCC3	i
O=C(O)CC(=O)Nc1ccccc1C(=O)O	0.5
COc1ccc2c(CN(C)c3ccccc3)cc(=O)oc2c1	i
COc1ccc(CCNCc2ccc(OCc3ccc(Cl)nc3)c(OC)c2)cc1OC	i
Cc1ccc(/C=C/C(=O)C2C(=O)c3ccccc3C2=O)cc1	i
CCC(C)(C(=O)NC1CCCC1)N(Cc1ccco1)C(=O)Cc1cccs1 (stereo unspecified)	0.5
O=C(CC1CCCCC1)NCC1CCCO1 (stereo unspecified)	0.3
CSc1ccc(S(=O)(=O)NC2CCCCC2)cc1	i
Cc1cc(C)n2nc(S(=O)(=O)N(C)Cc3ccccc3)nc2n1	0.7
COc1ccc(N2C(=O)c3ccccc3NC23C(=O)N(C)c2ccccc23)cc1 (stereo unspecified)	0.1
CC(C)CCNC(=O)C(C)N(Cc1ccc(F)cc1)C(=O)c1ccc(CN2CCCCC2)o1 (stereo unspecified)	0.5
COc1ccc(CC(=O)OC(C)CN2CCCC2)cc1 (stereo unspecified)	i
Cc1ccccc1C(=O)NC(=S)Nc1sc2c(c1C#N)CCC(C)C2 (stereo unspecified)	i
CCOC(=O)N1CCN(CC(=O)Nc2c(C(=O)OC)[nH]c3cc(C)ccc23)CC1	i
O=C(Nc1ccccc1C(F)(F)F)c1cc(-c2cccc(O)c2)on1	i
Cc1cc(C(F)F)n2ncc(C(=O)NCCc3ccc(Cl)cc3)c2n1	i
COc1ccc(N2CCN(C(=O)c3ccc(CS(=O)(=O)c4ccc(OC)cc4)o3)CC2)cc1	1.6
CCCCOP(=O)(OCCCC)/C(C#N)=C(/C)O	0.3
CCOC(=O)c1c(C)[nH]c(NC(=O)Nc2c(C)n(C)n(-c3ccccc3)c2=O)c1C	3.3
Cc1ccc(N2CC(C(=O)OCC(=O)C(C)(C)C)CC2=O)cc1 (stereo unspecified)	i
Cc1nnc(NC(=O)CSc2nnc(Cc3cccn3C)n2-c2ccccc2)s1	1.9
Cc1sc2ncnc(N[C@@H](CCC(=O)O)C(=O)O)c2c1C	i
COc1ccc(N2CCN(C(=O)Cc3ncc(C(F)(F)F)cc3Cl)CC2)cc1	0.0
Cc1ccc(C(=O)Nc2cccnc2)cc1S(=O)(=O)N1CCOCC1	0.9
Cc1ccc(NC(=O)CNc2cccc(C)c2C)c(C)c1	i

# New compounds follow:
Compound	H5N1 antiviral
CC(=O)NC1CC2CCCC(C1)N2 (stereo unspecified)	i
CCCc1nc2c(=O)[nH]c3ccccc3c2o1	i
COc1cc(OC)cc(C(=O)N/N=C/c2ccc(OC)c(COc3ccc(F)cc3)c2)c1	i
O=C(CSc1nnc(CN2CCCCCC2=O)n1-c1ccccn1)NCC(F)(F)F	i
Cc1cc(-c2nnc3sc(C4CCCCC4)nn23)n[nH]1	3.6
O=S1(=O)CCC(N=Cc2cc(Br)ccc2O)C1 (stereo unspecified)	i
COCCSc1ccccc1C(=O)Nc1cc(C)on1	i
Cc1cc2cc(C(c3nnnn3Cc3ccco3)N3CCc4ccccc4C3)c(=O)[nH]c2cc1C (stereo unspecified)	i
O=c1[nH][nH]c(C(F)(F)F)c1C=Nc1ccccc1Cl	i
O=S(=O)(Nc1ccc(Cc2ccncc2)cc1)c1ccc(Br)cc1	0.8
Oc1c(C(c2ccc(F)cc2)N2CCc3ccccc3C2)sc2ncnn12 (stereo unspecified)	0.3
CCOc1ccc(CCNC(=O)C2CCN(S(=O)(=O)CC)CC2)cc1OCC	i

# Shown as labelled records: part of the list above.
Compound: O=S(=O)(Nc1ccc(Cc2ccncc2)cc1)c1ccc(Br)cc1
  H5N1 antiviral: 0.8
Compound: Oc1c(C(c2ccc(F)cc2)N2CCc3ccccc3C2)sc2ncnn12 (stereo unspecified)
  H5N1 antiviral: 0.3

# Next part:
Compound	H5N1 antiviral
Cc1cc(C)c(N(C(=O)Cn2nnc3ccccc32)C(C(=O)NC(C)(C)C)c2ccsc2)c(C)c1 (stereo unspecified)	0.4
CCc1cc(=O)oc2cc(OCC(=O)N(CC)CC)c(Cl)cc12	1.6
CC(c1ccccc1)N1C(=O)c2ccc(C(=O)NCc3ccco3)cc2C1=O (stereo unspecified)	i
O=C1N/C(=C/c2cccn2-c2ccc(F)cc2)C(=O)N1Cc1ccccc1	i
O=C(c1ccco1)N1C(=O)c2cccc3cccc1c23	0.9
CN(C(=O)C1CCCO1)c1nnc(-c2ccncc2)s1 (stereo unspecified)	0.6
Cc1ccc(NC(=O)CSc2nnc(-c3cccs3)n2Cc2ccco2)cc1	0.3
N#Cc1cc2c(nc1SCc1ccccc1)CCCC2=O	2.4
CCOC(=O)N=S(N)(=O)c1ccc(Cl)cc1 (stereo unspecified)	i
NC(=O)COC(=O)c1ccc(S(=O)(=O)N2CCCCCC2)cc1	0.7
COc1ccc(CNC(=O)Nc2cccc(C)c2)cc1	1.0
O=C(Nc1nnc(-c2ccco2)s1)C1CCCCC1	i
CCOc1ccccc1C1C(C(=O)Nc2ccccc2OC)=C(C)Nc2nc(CCCO)nn21 (stereo unspecified)	0.2
CCN(CC)CCCNC(=O)CC1Oc2ccc(C)cc2NC1=O (stereo unspecified)	i
COc1ccc(S(=O)(=O)N/N=C\c2ccc3c(c2)OCO3)cc1	i
Clc1ccc(-c2ccnc(Oc3ccc4ccccc4c3)n2)cc1	0.5
CCCCOC(=O)Nc1ccccc1C(=O)OC	1.1
COc1ccc(CNC(C)(C)C)cc1Cl	i

# As a short view, 2 of the compounds above.
Compound	H5N1 antiviral
COc1ccc(S(=O)(=O)N/N=C\c2ccc3c(c2)OCO3)cc1	i
Clc1ccc(-c2ccnc(Oc3ccc4ccccc4c3)n2)cc1	0.5
